# hERG WT inh = inhibitors of human wildtype KCNH2 potassium channel | Q12809 | 0.37% of 340,000 active | U2OS, BacMam KCNH2, thallium flux FluxOr; stronger effect = lower value | activity change, % at 1.84 µM;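 active = maximum activity change below -70%; inconclusive = maximum activity change between -70% and -50%; inactive = maximum activity change above -50%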; also: % is scaled to controls: 0 for no effect and ±100 for the full control effect
#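 U2OS cells were transduced with wild-type KCNH2 virus (2.03 x 10^8 / mL) for 4 h at room temperature, then cultured overnight at 37 C. Thallium flux was read with FluxOr dye. Rate constants were normalized to DMSO controls.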
# AT treatment = potential ataxia-telangiectasia treatment; 0.19% of 320,000 active; Potency, µM (highest dose often 57.5 µM), without a hit: top-dose activation, usual class: activators; […] A-T fibroblasts, KAP-1 phosphorylation AlphaLISA; neocarzinostatin DNA damage 30 min before lysis; also: potency is read from the fitted curve at half-maximal effect; % of control where 0% means no effect; nearly all actives have a fitted effect of over 45% in size
#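 ATM-like activity read as KAP-1 phosphorylation via AlphaLISA donor/acceptor antibody pairs after lysis and 6 hr at 25C. Cells were ATM-null patient fibroblasts ([…], hTERT), dosed 60 min, then exposed to the DSB inducer NCS for 30 min.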
# TCR activator = T cell receptor activation; primary human leukocytes, anti-CD3, IL-2 HTRF, 48 h; Potency, µM (doses to about 9.22 µM), for the others: top-dose activation of IL-2 secretion, hits mostly activators; 330,000 tested, under 10 active; AID 504894; also: % of control where 0% means no effect
#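 1) Mix primary human leukocytes, a-CD3 beads and compound. 2) Incubate 48 hr. 3) Add HTRF IL-2 reagents (a-IL-2-K, a-IL-2-d2).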
# Tb PFK inh = T. brucei PFK enzyme inhibition; Potency, µM (titrated, usually from 57.5 µM), without a hit: at the top dose activity, negative = inhibition, most hits filed as inhibitors; 0.17% of 330,000 active; AID 485367; O15648; T. brucei PFK, ADP-Glo luminescence;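 also: potency is read from the fitted curve at half-maximal effect; 0% = uninhibited 1x PFK enzyme wells and -100% = no-enzyme wells; nearly all actives have a fitted effect of over 60% in size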
# Target sequence (O15648 whole entry, looked up): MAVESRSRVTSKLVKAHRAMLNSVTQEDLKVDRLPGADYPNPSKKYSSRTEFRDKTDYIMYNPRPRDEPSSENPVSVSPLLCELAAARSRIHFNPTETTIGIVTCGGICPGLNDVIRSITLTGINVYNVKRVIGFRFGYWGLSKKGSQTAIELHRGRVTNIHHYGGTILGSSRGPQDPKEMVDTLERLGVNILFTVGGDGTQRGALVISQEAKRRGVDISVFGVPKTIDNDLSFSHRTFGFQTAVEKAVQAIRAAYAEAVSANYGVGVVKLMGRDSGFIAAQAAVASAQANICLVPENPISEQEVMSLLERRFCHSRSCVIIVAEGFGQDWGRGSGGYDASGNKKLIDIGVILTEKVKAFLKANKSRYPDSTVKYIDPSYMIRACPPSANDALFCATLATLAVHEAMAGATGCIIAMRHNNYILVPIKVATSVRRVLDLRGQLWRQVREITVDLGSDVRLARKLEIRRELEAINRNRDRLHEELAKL
#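 Compounds were pin-transferred as a titration series up to 57 uM into substrate buffer (0.5 mM F6P, 0.1 mM ATP, pH 8.0), then 1.25 nM PFK was added and reactions ran 45 min before ADP-Glo detection.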
# GALK inh = galactokinase (human) inhibition. Potency, µM (titrated, usually from 57.5 µM), for inactives: top-dose activity change, negative = inhibition, most hits filed as inhibitors. Purified GALK, Kinase-Glo residual ATP luminescence. 0.007% of 270,000 active. P51570. AID 1868; also: potency is read from the fitted curve at half-maximal effect; % is scaled to controls: 0 for no effect and ±100 for the full control effect
# Target sequence (P51570 whole entry, looked up): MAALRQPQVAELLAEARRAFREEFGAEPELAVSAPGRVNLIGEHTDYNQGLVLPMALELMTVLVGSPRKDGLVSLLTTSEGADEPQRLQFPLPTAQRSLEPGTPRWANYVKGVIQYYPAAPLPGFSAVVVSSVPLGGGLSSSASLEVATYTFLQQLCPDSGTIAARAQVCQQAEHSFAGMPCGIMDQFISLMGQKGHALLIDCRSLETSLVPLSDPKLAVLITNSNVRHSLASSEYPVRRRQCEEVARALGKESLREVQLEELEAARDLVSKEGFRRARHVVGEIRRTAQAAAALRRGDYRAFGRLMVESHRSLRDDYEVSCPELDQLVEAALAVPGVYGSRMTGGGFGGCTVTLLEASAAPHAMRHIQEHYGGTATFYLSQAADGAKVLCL
#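 Luminescence from leftover ATP (Ultra-Glo luciferase/luciferin) served as read-out after a 1 h room-temperature reaction of 5 nM GALK with 35 uM ATP and 100 uM galactose.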
# Giardia kill = Giardia lamblia killing | Giardia lamblia trophozoite viability | activity change, % at 7.66 µM, hits read low | 0.15% of 340,000 active | AID 540267; in the data active = activity change below about -80%; inconclusive = between about -30% and that limit;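 also: parasites exposed to compound for two days anaerobically before the ATP read; % is scaled to controls: 0 for no effect and ±100 for the full control effect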
#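 Trophozoite viability was measured as ATP-dependent luminescence, read 15-30 min after reagent addition. Before that, parasites at 100 cells/well were exposed to compounds for 48 h, anaerobically, at 37 deg C.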
# BCR signal inh = inhibitors of chronic active B-cell receptor signaling. ABC-DLBCL IkBa-CBG/CBR reporter, luminescence ratio, 4 h. Potency, µM (top dose mostly 46.1 µM), for inactives: top-dose ratio change, negative = lower green/red ratio, actives largely listed as inhibitors. 0.05% of 340,000 active. AID 493014; active = well fitted inhibition curve with a large enough effect in the signal ratio, with a control signal flat, not every such curve was filed as active; inconclusive = small, poorly fitted or top-dose-only effect, or effect the other way, or a change in a side signal; the % refers to the signal ratio;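 also: potency is read from the fitted curve at half-maximal effect; plate controls were basal doxycycline-induced cells for no effect and cells given 10 µM MG132 for full effect; MG132 reads +100%, hits lower the ratio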
#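 Cell line TMD8 (human ABC DLBCL), stably expressing tet-inducible CBG68-IkBa fusion and CBR; IMDM/0.5% FBS; cpd up to 46 uM; dox induction, 4 h, 37C/5% CO2; dual luminescence; green/red ratio; MG132 control.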
# FBPA coupling cs = coupling enzyme interference in Giardia aldolase counter-screen. coupling enzyme system counterscreen, AmpLite Red fluorescence. activity change, negative = inhibition, % at 58.2 µM, hits read low. 0.67% of 290,000 active. AID 2472; in the data active = activity change below about -30%; also: % is scaled to controls: 0 for no effect and ±100 for the full control effect
#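 First, compound is pin-transferred into glyceraldehyde-3-phosphate coupling-enzyme reagent at 57.5 uM final and held 10 min at RT. Next, substrate, coupling system and AmpLite Red are added. After 20 min RT, fluorescence (525/598 nm) is read.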
# TSHR antag = antagonists of human thyroid stimulating hormone receptor; P16473; TSHR-expressing cells, TSH-stimulated cAMP HTRF, 2 h; stronger effect = lower value; activity change, negative = inhibition, % at 11.5 µM; 0.2% of 330,000 active; AID 504810;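 active = activity change below a set negative limit, meaning inhibition stronger than a set level, cut at about -70% in these data; inconclusive = activity change between two set negative limits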; also: % is scaled to controls: 0 for no effect and ±100 for the full control effect
#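 Read-out is FRET at 665 nm (cryptate excitation 337 nm) from a cryptate-tagged anti-cAMP antibody, competed by cell cAMP against cAMP-d2. Compounds are tested on freshly harvested TSHR cells challenged with 4nM TSH (EC80) for 2 hours at 37 deg C.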
# Numbers without * were called inactive; ? = inconclusive; . = no result given; [ ] = dose if it differs, or a comment. Unless noted, calls follow the shape of the dose curve; as a rule, active = well fitted curve in the direction sought with a large enough effect; inconclusive = small, poorly fitted or top-dose-only effect, or another doubt; inactive = no such curve, though single readings can be large; an effect the other way counts as inactive or inconclusive.
SMILES,hERG WT inh,AT treatment,TCR activator,Tb PFK inh,GALK inh,Giardia kill,BCR signal inh,FBPA coupling cs,TSHR antag
CC1=NN(c2nc(-c3ccccc3)cs2)C(=O)C1,1,-5%,-5%,4%,3%,-14,10%,5,1
CC(=O)Nc1ccc(C(=O)Nc2nc(-c3cc(C)n(Cc4ccccc4)c3C)cs2)cc1,9,-8%,?,3%,-1%,-3,-3%,-1,-4
CCn1c(NCc2cc(Br)ccc2NS(=O)(=O)c2ccc(C)cc2)nc2ccccc21,5,0%,8%,1%,-6%,-17,?,.,-16
O=C(CSc1ncnc2c1oc1ccccc12)c1cccs1,-9,-5%,-1%,0%,0%,-6,-10%,-1,69
COc1ccccc1NC(=O)N(Cc1ccccc1)C1=NCC(C)S1 (configuration not stated),-3,6%,1%,-2%,2%,2,-1%,-8,-1
N#CCCSc1ccccc1NC(=O)c1cc(=O)c2ccccc2o1,0,-1%,-4%,-10%,-10%,9,?,-1,9
COc1ccc(CN2CCC(CO)(Cc3ccccc3)CC2)cc1Cn1cccn1,20,13%,-6%,0%,0%,2,-14%,4,-25
CCOC(CNC(=O)c1cccn2c(=O)c3c(C)c(C)sc3nc12)OCC,-11,-4%,4%,-1%,-2%,8,?,-5,-3
CCOC(=O)c1cc(C#N)c(Oc2ccc(F)cc2)nc1-c1ccccc1,15,4%,2%,1%,3%,0,?,2,0
Nc1c(C(=O)NCc2ccc3c(c2)OCO3)nnn1CC(=O)Nc1ccc(Br)cc1,11,-2%,3%,2%,7%,3,26%,-6,-114*
Cc1sc(NC(=O)CSc2nnc3scc(-c4ccccc4)n23)c(C#N)c1C,33,4%,-2%,?,-1%,13,?,1,-2
COc1cccc(CN(C)CC(=O)NCc2ccc(F)cc2)c1OC,-1,.,-20%,-2%,.,-2,-9%,-1,22
COc1ccccc1Nc1nc2ccc(C)cc2n2cnnc12,-7,2%,5%,2%,.,-9,?,-1,0
Cc1nc(-c2ccc(C(=O)Nc3ccc(F)cc3)cc2)cs1,2,0%,2%,2%,2%,-17,?,3,-4
CCCC(c1nnnn1Cc1ccc(F)cc1)N1CCN(C2CCCCC2)CC1 (configuration not stated),47,11%,0%,-8%,2%,10,?,-5,18
Fc1ccc(NC(=S)N2CCCc3ccccc32)cc1,8,-3%,0%,1%,-3%,9,8%,-18,3
COc1ccc(-c2nn3c(-c4ccccn4)nnc3s2)cc1OC,-2,10%,3%[46.1 µM],0%,1%,3,-16%,-1,-2
Cc1cc(-n2c(C)cc(C(=O)CN3C(=O)NC4(CCCCCC4)C3=O)c2C)no1,7,-3%,12%,1%,-2%,-5,-7%,-1,-7
Cc1ccc(Nc2nnc(SCC(=O)Nc3cccc(S(=O)(=O)N4CCCCC4)c3)s2)cc1,5,-3%,-7%[46.1 µM],9%,1%,4,?,-3,-27
COc1ccc(CNCCC(c2ccccc2)c2ccc(OC(C)C)cc2)cc1OC (configuration not stated),?,-17%,-4%,8%,6%,-22,?,2,7
CCCC(c1nnnn1Cc1ccc(OC)cc1)N1CCN(C(=O)c2ccco2)CC1 (configuration not stated),7,-6%,3%,4%,10%,-6,-6%,-2,-16
Cc1ccc(NC(=S)NC(NC(=O)c2ccccc2)C(Cl)(Cl)Cl)c(C)c1 (configuration not stated),7,-3%,-2%,-1%,1%,-6,?,2,-2
COc1ccccc1CN1CCN(C(CC(C)C)c2nnnn2Cc2cccs2)CC1 (configuration not stated),32,3%,7%,-2%,1%,11,?,1,-2
O=C1c2ccccc2C(=O)N1CC(=O)N1c2ccccc2Sc2ccccc21,1,11%,-68%,4%,-1%,1,0%,1,-4
CCOC(=O)c1cnc2ccc(Cl)cc2c1N1CCN(C)CC1,9,-1%,-12%,17%,-5%,-10,?,7,4
COc1ccc(Br)cc1/C=N/n1c(-c2ccccc2)n[nH]c1=S,4,1%,-2%,0%,-5%,-4,1%,-8,?
O=c1c(Cc2ccc(Cl)cc2Cl)c(O)ccn1Cc1ccc(Cl)cc1,-10,-11%,1%,-9%,0%,-16,?,8,-15

# Ordered by SMILES length (smallest number first): some entries from above.
SMILES,hERG WT inh,AT treatment,TCR activator,Tb PFK inh,GALK inh,Giardia kill,BCR signal inh,FBPA coupling cs,TSHR antag
CCOC(=O)c1cnc2ccc(Cl)cc2c1N1CCN(C)CC1,9,-1%,-12%,17%,-5%,-10,?,7,4
Cc1cc(-n2c(C)cc(C(=O)CN3C(=O)NC4(CCCCCC4)C3=O)c2C)no1,7,-3%,12%,1%,-2%,-5,-7%,-1,-7
CC(=O)Nc1ccc(C(=O)Nc2nc(-c3cc(C)n(Cc4ccccc4)c3C)cs2)cc1,9,-8%,?,3%,-1%,-3,-3%,-1,-4
Cc1ccc(Nc2nnc(SCC(=O)Nc3cccc(S(=O)(=O)N4CCCCC4)c3)s2)cc1,5,-3%,-7%[46.1 µM],9%,1%,4,?,-3,-27

# 2 entries from above in another layout.
CC1=NN(c2nc(-c3ccccc3)cs2)C(=O)C1
  hERG WT inh: 1	AT treatment: -5%	TCR activator: -5%	Tb PFK inh: 4%	GALK inh: 3%	Giardia kill: -14	BCR signal inh: 10%	FBPA coupling cs: 5	TSHR antag: 1

CC(=O)Nc1ccc(C(=O)Nc2nc(-c3cc(C)n(Cc4ccccc4)c3C)cs2)cc1
  hERG WT inh: 9	AT treatment: -8%	TCR activator: ?	Tb PFK inh: 3%	GALK inh: -1%	Giardia kill: -3	BCR signal inh: -3%	FBPA coupling cs: -1	TSHR antag: -4

# Only hERG WT inh and Tb PFK inh, for six of the compounds above:
smiles | hERG WT inh | Tb PFK inh
COc1ccccc1NC(=O)N(Cc1ccccc1)C1=NCC(C)S1 (configuration not stated) | -3 | -2%
Nc1c(C(=O)NCc2ccc3c(c2)OCO3)nnn1CC(=O)Nc1ccc(Br)cc1 | 11 | 2%
COc1ccc(Br)cc1/C=N/n1c(-c2ccccc2)n[nH]c1=S | 4 | 0%
O=c1c(Cc2ccc(Cl)cc2Cl)c(O)ccn1Cc1ccc(Cl)cc1 | -10 | -9%
O=C1c2ccccc2C(=O)N1CC(=O)N1c2ccccc2Sc2ccccc21 | 1 | 4%
Cc1nc(-c2ccc(C(=O)Nc3ccc(F)cc3)cc2)cs1 | 2 | 2%

# Compound activity as filed in PubChem BioAssay.

# A portion of the library; count on the stated rates, not on these rows.
